# Screens deposited in PubChem BioAssay by several laboratories.
# Arbovirus anti: antivirals against arbovirus infection, primary screen, cell-based, full library, 10K replicate subset | arbovirus infection cell-based antiviral screen | AID 1251, 2008 | inhibition, % at 10 µM | actives 0.37% (n = 200,000);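 active means inhibition from about 30%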;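 further: bluetongue infection of BSR cells; cell survival read as ATP light after 72 h; 0% = infected wells without compound and 100% = uninfected wells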
# Mtb bLac sens: beta-lactam sensitization of Mtb H37Rv, H37Rv; M. tuberculosis H37Rv growth with meropenem, percent inhibition; hits of this screen are not shown here; inhibition, % at 25 µM; actives 0.27% (n = 330,000);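 active means about 74% or more and at least 40 points above the plate without the antibiotic, then above 30% in a dose series; inconclusive means first-round hits that could not be retested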;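 further: growth measured after seven days incubation then overnight dye step; 0% = bacteria only wells and 100% = bacteria with antibiotic; twin plates without the antibiotic show which effects depend on it; some results filed as inactive read as strong as hits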
# YopH inh: YopH tyrosine phosphatase inhibitors, primary screen, biochemical, fluorescence Ex485/Em525; YopH tyrosine phosphatase [Yersinia enterocolitica]; actives 0.16% (n = 140,000); inhibition, %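 (about 10 µM by stock and volumes)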;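 active means inhibition of 50% or more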;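 further: controls were vehicle for no effect and minimum signal wells for full effect; inactives centre near -20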
# RecA intein inh: Mtb RecA intein splicing inhibitors, primary screen, biochemical, fluorescence, HTS. cell-free RecA intein splicing. AID 2221, 2009. inhibition, %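 (about 9 µM by stock and volumes)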. actives 0.75% (n = 290,000). Protein RecA (Mycobacterium tuberculosis (strain ATCC 25618 / H37Rv)), P9WHJ3; in the data active means inhibition above about 30%; inconclusive means no clear call, values can overlap the other calls;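 further: 0% = vehicle wells and 100% = reference inhibitor control wells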
# Target sequence (P9WHJ3 whole entry, looked up): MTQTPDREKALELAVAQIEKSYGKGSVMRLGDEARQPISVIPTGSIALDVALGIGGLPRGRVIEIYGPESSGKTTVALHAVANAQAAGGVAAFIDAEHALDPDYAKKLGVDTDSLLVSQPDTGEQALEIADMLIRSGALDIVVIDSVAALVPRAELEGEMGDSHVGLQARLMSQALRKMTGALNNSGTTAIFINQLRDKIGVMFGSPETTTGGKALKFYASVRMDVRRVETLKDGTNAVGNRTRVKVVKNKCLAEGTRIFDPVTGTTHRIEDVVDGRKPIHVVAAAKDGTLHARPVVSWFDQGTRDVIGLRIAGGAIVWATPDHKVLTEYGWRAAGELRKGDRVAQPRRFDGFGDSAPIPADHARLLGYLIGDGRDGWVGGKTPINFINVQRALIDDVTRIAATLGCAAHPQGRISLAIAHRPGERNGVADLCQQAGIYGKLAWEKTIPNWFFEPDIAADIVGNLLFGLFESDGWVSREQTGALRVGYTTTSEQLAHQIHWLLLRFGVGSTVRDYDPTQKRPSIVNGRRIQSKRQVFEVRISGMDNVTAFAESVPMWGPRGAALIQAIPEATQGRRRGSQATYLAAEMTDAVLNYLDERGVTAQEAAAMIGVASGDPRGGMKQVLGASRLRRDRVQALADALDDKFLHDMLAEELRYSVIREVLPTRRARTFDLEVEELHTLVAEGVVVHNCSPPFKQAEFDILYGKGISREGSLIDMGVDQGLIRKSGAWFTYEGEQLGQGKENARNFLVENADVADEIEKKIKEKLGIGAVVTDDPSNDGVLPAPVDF
# Mtb H37Rv: M. tuberculosis H37Rv growth inhibitors, H37Rv strain (AID 1626); M. tuberculosis H37Rv growth inhibition; higher % means a stronger effect; inhibition, % at 10 µM; hits with a dose series show IC50 in µM; actives 0.95% (n = 220,000);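 active means confirmed in a dose series; inconclusive means inhibition above 80% but not taken into the dose series; inactive means below 80% or under 30% at every dose of the series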;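 further: bacteria incubated seven days before Alamar blue readout; 0% = bacteria only wells and 100% = bacteria with antibiotic wells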
# Arbovirus anti repeat: recorded beside Arbovirus anti, whose call it bears; inhibition, %; measured here: 10K subset replicate screen; many hits read low in the repeat;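 first of two repeat runs on a subset; 0% = infected and 100% = uninfected wells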
# * marks the source's active call; other numbers are inactive results; ? = inconclusive; nt = not tested or not shown.
SMILES,Arbovirus anti,Mtb bLac sens,YopH inh,RecA intein inh,Mtb H37Rv,others
CN(Cc1cccc(F)c1)CC(O)COCc1ccccc1Cl (stereo not given),6,-1,nt,nt,6%,
CN(CC(=O)NCc1ccccc1)Cc1cccc(F)c1,nt,2,nt,-2.4,nt,
CC(C)=CCc1c2c(c3occ(-c4ccc(O)cc4)c(=O)c3c1O)C=CC(C)(C)O2,-27,26,nt,18,57%,Arbovirus anti repeat=-20
COc1ccc(N2CCC(CNC(=S)Nc3c(C)cccc3C)C2)cc1 (stereo not given),nt,-8,nt,3.9,5%,
Cc1noc(C)c1COc1ccc(C(=O)OCc2nnc(-c3ccc(Cl)cc3)o2)cc1,0,99,3,2.6,13%,
CC1CCCCN1C(=O)CN1C(=O)c2ccccc2S1(=O)=O (stereo not given),nt,-11,nt,-1.5,nt,
COc1cccc(NC(=O)N(CCCN2CCOCC2)C(C)c2cc3cccc(OC)c3o2)c1 (stereo not given),-1,-15,-32,0.7,-4%,
COc1cccc(C(=O)NNC(=O)c2ccccc2Br)c1,6,?,-17,-6.5,5%,
Cc1ccc(CC(=O)N2CCN(c3ccccn3)CC2)cc1,7,0,-5,3.3,-2%,
CN(Cc1ccccc1)C(=O)C1CCN(S(=O)(=O)c2cc([N+](=O)[O-])ccc2Cl)CC1,4,99,-29,0.8,?,
CCc1ccc(NS(=O)(=O)c2cccc3nsnc23)cc1,nt,7,nt,-0.4,nt,
Cc1cc(NC(=O)COC(=O)C(Nc2ccc(C(F)(F)F)cc2Cl)C(C)C)no1 (stereo not given),-40,12,-41,5.8,-15%,
CCCCc1c(C)c2ccc(OCC(C)=O)cc2oc1=O,-9,62,2,nt,3%,
CCSc1ncc(Cl)c(C(=O)Nc2ccccc2)n1,5,-4,-23,1.7,5%,
COC(=O)c1cncc(O)c1,-2,1,-4,-2.3,-13%,
Nc1c(Nc2ccccc2)c2ccccc2oc1=O,9,9,-15,2.1,0%,
COc1cc(SC)ccc1C(=O)N(Cc1ccccc1)c1ccccc1,nt,1,nt,10,nt,
c1ccc(Oc2cc(-c3ccccc3)ncn2)cc1,-11,3,1,1.0,5%,
Cc1ccc(S(=O)(=O)NCCS(=O)(=O)N2CCN(c3ccc(F)cc3)CC2)cc1,nt,-4,nt,0.7,nt,
COCCNC(=O)/C(C#N)=C/C(C)=C/c1ccccc1,-1,1,-39,3.3,-3%,
N#CCSc1nnc(-c2ccccc2)c(-c2ccccc2)n1,-14,-5,13,6.9,-3%,
Cc1cc(C)cc(N2C(=O)C3CCCN3C2=S)c1 (stereo not given),nt,3,nt,2.6,nt,
OCCN1CCN(CC(O)COc2ccc3c(c2)OCO3)CC1 (stereo not given),7,2,-40,-3.6,-7%,
COc1ccc(CCNc2ncnc3sccc23)cc1OC,4,0,nt,1.6,-4%,
Cc1cccc(NC(=S)N(C)Cc2cn(C)c3ccccc23)c1,7,2,-19,-1.7,4%,

# A run of entries from the list above:
SMILES,Arbovirus anti,Mtb bLac sens,YopH inh,RecA intein inh,Mtb H37Rv,others
CN(Cc1cccc(F)c1)CC(O)COCc1ccccc1Cl (stereo not given),6,-1,nt,nt,6%,
CN(CC(=O)NCc1ccccc1)Cc1cccc(F)c1,nt,2,nt,-2.4,nt,
CC(C)=CCc1c2c(c3occ(-c4ccc(O)cc4)c(=O)c3c1O)C=CC(C)(C)O2,-27,26,nt,18,57%,Arbovirus anti repeat=-20

# Six structures from above, ordered by heavy-atom count, smallest number first.
SMILES,Arbovirus anti,Mtb bLac sens,YopH inh,RecA intein inh,Mtb H37Rv,others
CCSc1ncc(Cl)c(C(=O)Nc2ccccc2)n1,5,-4,-23,1.7,5%,
COc1cccc(C(=O)NNC(=O)c2ccccc2Br)c1,6,?,-17,-6.5,5%,
Cc1ccc(CC(=O)N2CCN(c3ccccn3)CC2)cc1,7,0,-5,3.3,-2%,
Cc1cccc(NC(=S)N(C)Cc2cn(C)c3ccccc23)c1,7,2,-19,-1.7,4%,
CC(C)=CCc1c2c(c3occ(-c4ccc(O)cc4)c(=O)c3c1O)C=CC(C)(C)O2,-27,26,nt,18,57%,Arbovirus anti repeat=-20
COc1cccc(NC(=O)N(CCCN2CCOCC2)C(C)c2cc3cccc(OC)c3o2)c1 (stereo not given),-1,-15,-32,0.7,-4%,

# The results go on:
SMILES,Arbovirus anti,Mtb bLac sens,YopH inh,RecA intein inh,Mtb H37Rv,others
COc1cccc(CNC(=O)C2CC(=O)N(C3CCCCCCC3)C2)c1 (stereo not given),nt,3,nt,2.3,nt,
CN(C)S(=O)(=O)c1ccc(Nc2nc(C3CC3)nc3c2nnn3Cc2ccccc2Cl)cc1,-5,9,-7,3.1,8%,
CC(=O)Nc1cccc(NC(=O)c2ccc3c(c2)CCN3S(C)(=O)=O)c1,nt,-3,nt,-1.6,nt,
O=C(CSc1nc(=O)n2ccccc2n1)OCc1ccccc1,nt,-14,nt,-2.4,nt,
COC(=O)c1ccc(NC(=O)C(=O)N2CCN(C(=S)Nc3ccccc3OC)CC2)cc1,5,0,-15,-2.3,-7%,
CCOC(=O)C1(Cc2cccc(OC)c2)CCCN(Cc2cc(OC)c(O)c(OC)c2)C1 (stereo not given),nt,1,nt,-5.2,nt,
CC1CCN(c2c(NCC3CCC(C(=O)NCCc4ccccc4)CC3)c(=O)c2=O)CC1 (stereo not given),0,-4,-25,-2.0,6%,
CN1C(=S)SC(/[N+]([O-])=C\c2cccs2)C1(C)C (stereo not given),-9,0,-7,-2.5,-12%,
CCn1c(CN2CCN(c3cccc(C)c3C)CC2)n[nH]c1=S,2,1,-34,-1.4,-5%,
Cc1nc2sc(C(=O)Nc3ccccc3)c(N)c2c(C)c1[N+](=O)[O-],1,1,nt,-0.1,8%,
Cc1cc(=O)oc2cc(OCC(O)CN3CCN(c4ccccc4)CC3)ccc12 (stereo not given),6,-6,-32,-1.1,nt,
Cc1ccc(C(=O)Nc2c(-c3cccs3)nc3cc(C)ccn23)cc1,-2,5,-38,-0.9,-5%,
COC(=O)c1ccc(CSc2ncn[nH]2)o1,5,-7,-48,3.9,3%,Arbovirus anti repeat=0
CCc1ccc(NC(=O)Nc2ccc3c(c2)CCC3)cc1,nt,1,nt,0.1,nt,
COC(=O)C1=C(c2cccc(OC)c2OC)C[C@@H]2CC[C@H]1N2C(=O)NCCNC(C)=O,nt,1,nt,-1.4,-7%,
CC(C)N=C1NN=C(c2ccc(Cl)c(Cl)c2)CS1,-7,nt,nt,-0.2,10%,
O=C(Nc1ccc2sc3ccccc3c(=O)c2c1)c1ccccc1Cl,-13,4,-36,-41,-12%,
Cc1ccc2nc(NC(=O)c3ccccc3F)sc2c1,nt,5,nt,-1.6,nt,
Fc1cccc(-c2cc3nc4c(c(N5CCC6(CC5)OCCO6)n3n2)CCCC4)c1,-11,-3,6,10,60%,Arbovirus anti repeat=-5
Cc1cc(Cl)c(S(=O)(=O)Nc2cc(S(=O)(=O)N3CCOCC3)ccc2F)cc1OCC(N)=O,3,-2,nt,2.0,0%,
O=C(Nc1ccc(N2CCOCC2)nc1)c1c(F)cccc1F,nt,-1,nt,1.1,6%,
Cc1ccc(C(=O)N2CCCC2)c(F)c1F,8,-3,-14,2.0,1%,
O=c1c2sccc2nc(SCc2cc(=O)n3cc(Br)ccc3n2)n1Cc1ccccn1,7,-15,nt,-5.5,3%,
O=C1NC(Cc2c[nH]c3ccccc23)C(=O)N1c1ccc(F)cc1 (stereo not given),3,3,2,-0.5,-7%,
O=C(NNC(=S)NC(=O)c1ccco1)c1ccc(F)cc1,nt,91,nt,-5.6,?,

# The list goes on:
SMILES,Arbovirus anti,Mtb bLac sens,YopH inh,RecA intein inh,Mtb H37Rv,others
COc1nc(C)nc2c1sc(=S)n2C,2,-2,-37,-2.2,1%,
O=C(NCCCn1ccnc1)c1cc2c(s1)CCCCC2,4,-5,-31,-0.4,5%,
COc1cccc(Nc2ncnc3nc[nH]c23)c1,-1,-1,-47,13,2%,
CSc1ccccc1NC(=O)Cn1nc([N+](=O)[O-])cc1C,6,-7,nt,-3.8,2%,
CCN1CC2([N+](=O)[O-])CC=C(OC)C([N+](=O)[O-])(C1)C2 (stereo not given),12,-3,-7,0.4,1%,
COC1=C/C(=C/c2c(N)n3nc(CC(=O)N4CCCCC4)sc3nc2=O)C=CC1=O,nt,4,nt,-0.8,nt,
COc1cccc(-c2nc(CCl)cs2)c1,-14,22,nt,0.5,-1%,
Cc1cc2c3c(c1)C(C)(c1ccccc1)CC(C)(C)N3C(=O)C21C(C#N)=C(N)OC2=C1C(=O)CC(C)(C)C2 (stereo not given),-30,?,-24,12,20%,
COC(=O)C1=C(C)NC(=O)/C1=C/c1ccc(CNS(=O)(=O)c2ccc(C)cc2)o1,-10,1,nt,nt,4%,
O=C(NCc1ccccc1)c1ccc(-c2ccccc2F)o1,-7,-6,-25,7.8,8%,
CCn1cc(/C=C(\NC(=O)c2ccc(OC)c(OC)c2)C(=O)NCCN2CCOCC2)c2ccccc21,nt,5,nt,-0.4,nt,
CN(C)c1ccc(NC(=O)c2cnsn2)cc1,-8,-2,nt,3.5,-6%,
COc1cccc(C(=O)OCC(=O)Nc2ccccc2N2CCOCC2)c1,4,-1,-37,-1.0,-3%,
NC(=O)CC(NC(=O)Cc1ccc(Br)cc1)c1ccc(NCC2CC2)c([N+](=O)[O-])c1 (stereo not given),nt,-7,nt,0.1,-7%,
COc1ccc(NC(=O)c2[nH]c(C)c(C(C)=O)c2C)cc1Cl,-8,-2,-29,-0.3,-7%,
COCCN(CC(=O)NCc1ccccc1)C(=O)CCC(=O)Nc1ccccn1,-3,-3,-10,-0.6,-4%,
Cc1ccc(C(=O)Cn2c(C(=O)/C=C/c3ccccc3)nc3ccccc32)cc1,-16,48,13,0.9,-6%,
CC(C)CC(=O)Nc1nnc(-c2ccco2)s1,3,11,-23,-2.2,-7%,
COc1cccc(C(=O)NC2CC3CCCC(C2)N3Cc2ccc(C)cc2)c1 (stereo not given),nt,-8,nt,-1.9,nt,
Cc1cccc(N(C(=O)c2csnn2)C(C(=O)NC2CCCC2)c2ccncc2)c1 (stereo not given),nt,-5,nt,0.4,nt,
Cc1cc(O)c(S(=O)(=O)c2ccccc2)c(C)c1NS(=O)(=O)c1ccccc1,nt,5,nt,4.1,nt,
COC(=O)c1ccccc1NC(=O)c1nc2nc(C)cc(C)n2n1,-5,-10,-11,-0.2,-4%,
CC(C)NC(=S)NC(c1ccccc1)(c1ccccc1)c1ccccc1,nt,13,nt,32*,nt,
CCOC(=O)N1CCN(S(=O)(=O)c2ccc3c(c2)CCN3C(=O)C2CCC2)CC1,5,-4,-34,0.0,-8%,
CC(Nc1n[nH]c(=S)[nH]c1=O)C(=O)OCc1ccccc1 (stereo not given),0,-14,-44,0.9,-1%,

# The results go on:
SMILES,Arbovirus anti,Mtb bLac sens,YopH inh,RecA intein inh,Mtb H37Rv,others
COc1ccc(-c2nnn(CC(=O)N(CCO)C(C(=O)NC3CCCC3)c3ccc(F)cc3)n2)cc1 (stereo not given),-4,7,-20,-0.6,2%,
Cn1ccc(C(=O)NC(=S)Nc2ccc([N+](=O)[O-])cc2O)n1,nt,-7,nt,0.2,nt,
Cc1occc1C(=O)n1nnc2ccccc21,5,2,-7,10,-4%,
CC#CCN(Cc1ccco1)C(=O)c1ccc(OC2CCN(Cc3ccccn3)CC2)cc1,nt,-4,nt,-0.2,nt,
CCc1c(C)nc2ncnn2c1N1CCCC(C(=O)NCc2cccs2)C1 (stereo not given),15,2,nt,0.4,-4%,
CCn1nc(NC(=O)c2cccnc2)c2cc3cccc(C)c3nc21,6,-12,-34,-10,3%,
COC(=O)C1=C(C)NC(=O)NC1c1ccsc1 (stereo not given),7,-5,16,-1.2,3%,
CC(C)Oc1ccc(/C(O)=C2/C(=O)C(=O)N(CCN3CCOCC3)C2c2ccccc2)cc1 (stereo not given),0,1,-41,0.5,-5%,
COCCN1CC(=O)N2C(c3cccc(C)c3)c3[nH]c4ccccc4c3C[C@H]2C1=O (stereo not given in full),nt,4,nt,4.9,nt,
O=C1NC(=O)N(CCC2=CCCCC2)C(=O)/C1=C/c1cccs1,nt,2,nt,3.2,-14%,
O=S(=O)(c1ccc(-c2cnc(C3CC3)o2)cc1)N1CCN(c2ccccc2)CC1,nt,2,nt,-7.2,nt,
COc1ccc(C(=O)C2CCCN(Cc3ccc(C)s3)C2)cc1OC (stereo not given),0,2,nt,0.1,9%,
COc1ccc(C2CC(=O)C=C(O)C2)cc1 (stereo not given),-1,0,-33,-0.2,-9%,
Cc1nc2ccccc2c(=O)n1Nc1cccc(Cl)c1,-9,1,-15,1.6,2%,
CCOC(=O)C1CCCN(C(=O)c2cccc(S(=O)(=O)N3CCOCC3)c2)C1 (stereo not given),1,-6,nt,7.8,-1%,

# This is a subset. The share of hits here may be higher or lower than overall.
